# High-throughput results from PubChem.
# Menin MLL FP FL = inhibitors of human menin-MLL interaction, wild-type MLL peptide | FP activity change, % at 61.4 µM | 290,000 tested, under 10 active | Fluorescence polarization, fluorescein-MLL peptide displacement from menin; inconclusive = falling polarisation curve, or a change in total fluorescence; inactive = total fluorescence flat and polarisation flat or rising; no compound was filed as active; the % refers to the polarisation; negative = inhibition;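 note: % of control where 0% means no effect; inhibitors lower the polarisation; unlabelled MLL peptide was the positive control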
# gsp antag = antagonists of gsp mutant (McCune-Albright syndrome). gsp-mutant cells, cAMP HTRF, 30 min; control for the full effect not named in the record. Potency, µM (doses to about 76.9 µM), for inactives: at the highest dose activity change, negative = inhibition, most hits filed as inhibitors. 340,000 tested, 0.4% active. AID 624288; active = falling curve of any shape with a large fitted effect; inconclusive = falling curve, mostly with a smaller effect; inactive = flat or rising curve; cell line not stated here;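 note: intracellular cAMP measured with PDE inhibitor Ro 20-1724 present during compound exposure; potency is the fitted concentration of half-maximal effect; % is set by controls: 0 for no effect and ±100 for the full control effect; nearly all actives have a fitted effect of over 65% in size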
#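 Cells in G418 medium, seeded 16-24 h, 37C; buffer exchange to DPBS + 1 mM CaCl2, 0.5 mM MgCl2, 0.05% BSA; cpds in DMSO + […] (300 uM stock), 30 min 37C; HTRF cAMP detection.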
# Sfp inh = blocks B. subtilis Sfp PPTase activity | Biochemical Sfp PPTase activity, qHTS | Potency, µM, inactives show max response, negative = inhibition, usual class: inhibitors | 310,000 tested, 3.5% active | AID 1490; active = well fitted inhibition curve with a large enough effect; inconclusive = small, poorly fitted or top-dose-only effect, or another doubt; inactive = no such curve, though single readings can be large or run the other way;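 note: the enzyme is Sfp with the accession as filed and its product quenches rhodamine fluorescence; potency is the fitted concentration of half-maximal effect; 0% = enzyme reaction without inhibitor and -100% = no enzyme wells; top concentration of the series not given in the record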
#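 Step 1, compound plus 15 nM Sfp-PPTase, 15 min, room temperature. Step 2, add rhodamine-CoA (5 uM) and BHQ-2-YbbR (12.5 uM). Step 3, read 525/598 nm fluorescence at 0 and 30 min.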
# ClpP mod = qHTS Assay for Activators of ClpP; 340,000 tested, 1.9% active; ATP-dependent Clp protease proteolytic subunit (Bacillus subtilis (strain 168)), P80244; Potency, µM (top dose mostly 57.5 µM), inactives show top-dose activity change, negative = active; purified B. subtilis ClpP, FRET peptide cleavage, 20 min; active = well fitted falling curve with a large enough effect; inconclusive = small, poorly fitted or top-dose-only effect; inactive = no such curve, though single readings can be large or run the other way; note: potency is the fitted concentration of half-maximal effect; the source files actives as falling curves though it sought activators and does not explain the sign; nearly all actives have a fitted effect of over 65% in size; many hits overshoot -100%
# Target sequence (P80244 whole entry, looked up): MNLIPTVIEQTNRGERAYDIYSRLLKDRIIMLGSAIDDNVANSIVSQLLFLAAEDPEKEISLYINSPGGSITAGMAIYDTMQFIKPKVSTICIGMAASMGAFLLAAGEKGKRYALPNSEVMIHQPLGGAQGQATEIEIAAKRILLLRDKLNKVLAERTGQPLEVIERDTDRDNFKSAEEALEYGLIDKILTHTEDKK
#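 Buffer: 100 mM Tris/HCl pH8, 100 mM KCl, 0.05% low protease BSA, 2.5% glycerol, 0.01% Tween-20. ClpP 10 microg/mL final; 20 min RT; delta FRET normalized to ADEP and DMSO controls.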
# gsp ag = gsp mutant agonism; gsp mutant cells, cAMP HTRF, 30 min; control for the full effect not named in the record; Potency, µM (top dose mostly 76.9 µM), for the others: top-dose activation (cAMP increase), most hits filed as activators; 340,000 tested, 0.13% active; active = well fitted activation curve with a large enough effect; inconclusive = small, poorly fitted or top-dose-only effect, or another doubt; inactive = no such curve, though single readings can be large or run the other way; cell line not stated here;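 note: phosphodiesterase inhibitor Ro 20-1724 added with compounds to block cAMP breakdown; potency is the fitted concentration of half-maximal effect; nearly all actives have a fitted effect of over 60% in size; about a fifth of the inactives were tested at one dose only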
#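 Cells stably selected in G418 were plated at 2000/well, grown 16-24 hr, then given compounds in DMSO with the PDE inhibitor […] (300 uM solution added) for 30 min at 37C; cAMP was read by HTRF.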
# CtBP-E1A blk = inhibitors of CtBP/E1A interaction | AlphaScreen GST-E1A/His-CtBP binding, 1536-well; stronger effect = lower value; control for the full effect not named in the record | activity change, % (no concentration beside the values) | 340,000 tested, 0.49% active; in the data active means activity change below about -65%; inconclusive means about -30% to -65%; inactive means above about -30%; note: % is set by controls: 0 for no effect and ±100 for the full control effect; compound concentration not given in the record
#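 AlphaScreen with 125 nM GST-E1A and 125 nM His-CtBP (5X stocks) in Tris pH 8.0, 300 mM NaCl, BSA, Tween 20, TCEP. Compounds preincubated 2 h at 37 deg C, then glutathione donor/nickel acceptor beads added for 1 h at 37 deg C in dark.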
# TRPV1 potentiator = human TRPV1 potentiation; 320,000 tested, 0.02% active; TRPV1-expressing cells, Fluo-8 calcium influx, capsaicin EC20 potentiation; host cell line not named in the record; control for the full effect not named in the record; AID 540277; potentiation, % at 8.33 µM; active means potentiation above 80%; inconclusive means 30% to 80%; inactive means below 30%; note: 0% is about no effect
# Target sequence (Q8NER1 whole entry, looked up): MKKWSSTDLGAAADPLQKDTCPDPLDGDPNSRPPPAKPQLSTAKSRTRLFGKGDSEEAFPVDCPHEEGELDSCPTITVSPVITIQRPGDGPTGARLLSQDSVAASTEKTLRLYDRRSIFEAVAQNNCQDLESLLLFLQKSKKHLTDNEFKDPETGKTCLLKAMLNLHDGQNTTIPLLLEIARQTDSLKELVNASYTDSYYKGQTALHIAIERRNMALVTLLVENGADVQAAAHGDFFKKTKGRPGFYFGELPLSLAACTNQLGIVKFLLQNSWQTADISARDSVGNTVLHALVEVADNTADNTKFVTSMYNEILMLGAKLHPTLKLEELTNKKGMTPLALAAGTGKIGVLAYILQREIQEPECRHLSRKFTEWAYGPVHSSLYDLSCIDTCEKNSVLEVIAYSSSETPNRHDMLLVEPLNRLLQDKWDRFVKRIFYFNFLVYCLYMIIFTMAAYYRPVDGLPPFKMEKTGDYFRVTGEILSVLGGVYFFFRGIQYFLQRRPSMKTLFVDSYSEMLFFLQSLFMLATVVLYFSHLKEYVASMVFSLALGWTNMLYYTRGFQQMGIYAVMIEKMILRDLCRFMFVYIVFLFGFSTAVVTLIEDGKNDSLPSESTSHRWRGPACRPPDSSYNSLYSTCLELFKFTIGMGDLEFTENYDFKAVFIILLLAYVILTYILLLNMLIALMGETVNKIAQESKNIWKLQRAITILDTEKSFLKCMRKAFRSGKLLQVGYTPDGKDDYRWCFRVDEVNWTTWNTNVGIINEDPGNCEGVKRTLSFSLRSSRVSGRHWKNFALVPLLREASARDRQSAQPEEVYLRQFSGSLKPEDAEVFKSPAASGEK
#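 Cells expressing TRPV1 were dye-loaded with Fluo-8 and read kinetically: 10 s baseline, 3 min after compound (agonist portion), then 2 min after EC20 capsaicin (allosteric enhancer portion). Calcium-bound dye fluorescence at 480/520 nm.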
# * hit, by the source's call; ? = inconclusive; . = no result given; [ ] = remark or other dose.
SMILES,Menin MLL FP FL,gsp antag,Sfp inh,ClpP mod,gsp ag,CtBP-E1A blk,TRPV1 potentiator
Cc1ccc(NC(=O)COC(=O)CN2C(=O)NC3(CCCC3)C2=O)cc1Cl,.,2%,.,1.3%,3%,5,-4
O=C(COc1ccc(Cl)cc1)NCCNC(=O)c1cnccn1,-4.0,6%,6%,.,15%[15.4 µM],4,6
Nc1cc(C(=O)OCC(=O)NCCC2=CCCCC2)ccc1Cl,.,8%,.,-12%,?,0,.
Cc1ccc(-c2cc(C(=O)N3CCN(C(=O)c4ccco4)CC3)no2)cc1,3.5,-2%,5%,-0.5%,3%,4,-19
O=C1c2cccnc2C(Nc2cccc(F)c2)N1Cc1ccco1 (stereo not drawn),0.9,8%,3%,0.0%,0%,10,4
CCOC(=O)C1=C(C)Nc2ncnn2C1c1cccs1 (stereo not drawn),-5.2,1%,-12%,-3.6%,22%,-12,-1
Cc1ccc(NC(=O)COC(=O)C2CC2)c(Br)c1,.,17%,22%,0.3%,7%[15.4 µM],-2,3
CCOc1ccccc1C1c2[nH]c3ccccc3c2C[C@H]2C(=O)N(C3CCN(Cc4ccccc4)CC3)CC(=O)N12 (stereo partly drawn),-6.0,2%,11%,-5.7%,18%[15.4 µM],-12,4
O=C(COC(=O)c1cncc(Br)c1)NC1CCCC1,-0.5,7%,-5%,-0.4%,-12%,10,2
Cc1ccc(C2C3CSCC=C3C(C#N)=C(N)C2(C#N)C#N)cc1 (stereo not drawn),?,-5%,?,-9.0%,-26%,-21,4
CC(C)(C)c1ccc(Oc2cccc(C3CC(=O)C(C4NCCc5ccccc54)C(=O)C3n3cncn3)c2)cc1 (stereo not drawn),5.5,16%,-19%,-2.7%,?,24,1
C[C@@H]1COC(=O)[C@@H](Cc2ccc(F)cc2)CC/C=C\C[C@@H](CC(=O)NCCO)C(=O)N1,.,10%,.,0.1%,.,-1,.
CCC1CCC2(CC1)NC(=O)N(CC(=O)Nc1ccc(OC)c(Cl)c1)C2=O (stereo not drawn),.,5%,.,0.7%,14%,.,-17
CC(=O)N1CCN(C(=O)c2ccc(Cl)c(S(=O)(=O)N3CCc4ccccc43)c2)CC1,.,-3%,.,0.1%,-64%[inhibitor],13,-11
Cc1cc(C(=O)NNC(=O)/C=C/c2ccccc2Cl)c(C)o1,.,-15%,14%,-1.7%,5%,3,3
CCCOc1ccc(CC(=O)NCCc2ccccc2)cc1OC,0.3,2%,3%,-2.7%,15%,-10,-12
CCCOc1ccc(/C=C/c2[nH]c(=O)[nH]c(=O)c2[N+](=O)[O-])cc1OCC,?,2%,6%,.,3%[15.4 µM],-2,?
Cc1nnc(SCC(=O)Nc2ccc(S(=O)(=O)Nc3ccc(Cl)nn3)cc2)s1,.,4%,3%,-0.3%,-6%,-17,8
COC(=O)CN(c1ccc(OC)cc1OC)S(=O)(=O)c1ccccc1[N+](=O)[O-],-1.6,2%,?,.,14%[15.4 µM],11,0
CN1C(=O)/C(=C/c2ccccc2OCc2ccc(C(=O)O)cc2)NC1=S,1.4,-25%,13%,.,-40%[inhibitor],-11,17
CC1CCN(CCCNC(=O)CCNC(=O)Cn2cnc3ccccc3c2=O)CC1,3.1,9%,19%,0.6%,4%[15.4 µM],0,-3
CC(C)(C)NC(=O)C1Cc2ccccc2CN1C(=O)Nc1cccc(Cl)c1 (stereo not drawn),0.0,-2%,15%,1.3%,6%,1,-12
COc1ccc(CN(CCCN2CCOCC2)S(=O)(=O)N(C)C)cc1OC,1.2,-10%,10%,-2.3%,-1%,8,-3
COC(=O)CCCCC1SCC(NC(=O)c2ccccc2)C1OC(C)=O (stereo not drawn),1.7,-2%,5%,0.7%,0%,-7,29
CC(C)C1Cc2c(sc3ncnc(NN)c23)CO1 (stereo not drawn),-0.3,14%,-20%,0.5%,27%[15.4 µM],-22,-3
C[C@@H]1NC(=O)[C@H](CCCN=C(N)N)NC(=O)c2cc([N+](=O)[O-])cc(I)c2NCCC[C@@H](C(N)=O)NC1=O,-0.7,5%,-5%,0.1%,.,-2,-12
Cc1cc(S(=O)(=O)NC2CCN(Cc3ccccc3)CC2)c(C)cc1Cl,-2.7,4%,11%,-0.9%,0%[15.4 µM],-2,2
O=S(=O)(N/N=C\c1cccc(F)c1)c1ccccc1,1.8,5%,9%,-0.1%,-1%,5,17
COc1cc2c(cc1OC)C(NC(=O)c1ccc(C)cc1)CC2=O (stereo not drawn),-7.5,-7%,7%,-14%,-32%,0,?
COc1cccc(C(=O)O/N=C(\N)c2ccccn2)c1,4.7,8%,10%,-1.0%,-31%[inhibitor],.,-3
O=C(COc1ccccc1)NCCSCc1ccc(Cl)cc1,0.5,7%,-3%,0.6%,?,1,-11
Cc1noc(C)c1NC(=O)Nc1ccc2c(c1)C(=O)N([C@H](C)CO)C[C@@H](C)[C@@H](CN(C)S(=O)(=O)c1cn(C)cn1)OCCCC[C@H](C)O2,.,.,.,-1.2%,?,-2,.
CCOC(=O)N1CCN(C(=O)CNC(=O)c2nn(-c3ccc(OC)cc3OC)c(=O)c3ccccc23)CC1,-0.5,-4%,31%[activator],.,-19%,3,11
CCN1C(=C(C#N)C#N)C=Cc2cc(C)ccc21,?,3%,6%,.,?,9,?
CC1(C)C=Cc2c(c3ccccc3[nH]c2=O)O1,-0.4,18%,-11%,0.4%,11%,-5,-11
COCC(C)N1CCC(Oc2ccc(C(=O)NCc3ccccn3)cc2)CC1 (stereo not drawn),-5.5,11%,0%,-3.9%,-25%,-4,-2
CCOC(=O)C1=C(C)Nc2nc(SCC)nn2C1c1ccc(OC)cc1 (stereo not drawn),4.0,-5%,-4%,-2.4%,-32%,-1,5
COc1cc(C2=NOC(C(=O)Nc3c(C)n(C)n(-c4ccccc4)c3=O)C2)cc(OC)c1OC (stereo not drawn),0.4,-10%,2%,-3.3%,?,3,29
CN(CC(=O)O/N=C(\N)c1ccccn1)S(=O)(=O)c1ccccc1,4.5,-6%,-6%,-0.3%,-2%,-2,-2
O=C1N=c2ccccc2=C1c1sc(=S)n(Cc2ccccc2Cl)c1O,-1.4,4%,1%,.,28%[15.4 µM],-10,.
CC(C)=CCN1CCN(Cc2cnc(C)s2)CC1CCO (stereo not drawn),-0.1,8%,-13%,.,-1%[15.4 µM],-7,-15
O=c1c2c(nc3c(-c4ccccc4)c[nH]n13)CCCC2,7.0,12%,5%,?,?,-13,-18
COc1ccc2c(c1[N+](=O)[O-])CCC/C2=N/OC(=O)c1cccc2ccccc12,6.1,7%,-21%,-1.9%,32%,-2,-1
COc1ccc(-c2noc(CCCOc3ccccc3)n2)cc1OC,-0.3,-12%,-4%,1.5%,0%,33,-3
COc1ccc(/C=N/NC(=S)Nc2ccccc2)cc1COc1ccc(F)cc1F,8.2,-8%,-15%,35µM*,5%[15.4 µM],-5,1
C=C1CCN([C@@H](CC(C)C)C(=O)NCc2cc(OC)c(OC)c(OC)c2)S(=O)(=O)c2ccccc21,.,-9%,.,-0.4%,-17%,-24,.
CC1CC(=NNC(=O)C2COc3ccccc3O2)CC(C)(C)C1 (stereo not drawn),.,13%,.,1.3%,-16%,.,.
O=C(/C=C/c1ccc([N+](=O)[O-])cc1)N1CCN(S(=O)(=O)c2cccs2)CC1,1.2,-6%,12%,0.8%,4%,.,4
Cn1c(N)c(C(=O)Nc2cccc(Cl)c2)c(=O)n(C)c1=O,-1.7,-25%,3%,0.8%,7%[15.4 µM],-2,2
CN(Cc1ccc(F)cc1)C(=O)c1cccc(S(=O)(=O)N2CCN(c3ccc(F)cc3)CC2)c1,.,-13%,.,-2.3%,-27%,-6,-3
CCOC(=O)c1c(NC(=O)C(C)N2CCN(C(=O)c3ccco3)CC2)sc2c1CCCC2 (stereo not drawn),-1.8,?,-26%,?,-63%[inhibitor],-18,-16
N#C/C(=C/c1ccccc1)c1nn(CCO)c(N)c1C#N,-0.6,-12%,14%,2.0%,-21%,-3,-3
CCOC(=O)CSc1ncnc2c1cnn2-c1ccc(C)cc1,-2.1,-9%,7%,-15%,-17%,-2,-2
Cc1cccc(C)c1NC(=S)NC(=O)c1ccc(Br)o1,0.2,2%,6%,-1.8%,-56%[inhibitor],-9,-5
Cc1ccc2cc([N+](=O)[O-])ccc2n1,5.9,-2%,11%,.,17%[15.4 µM],-1,-6
CC(C)C1=NN(C(=O)c2cccnc2)C(O)(C(F)(F)F)C1 (stereo not drawn),-1.1,2%,-1%,0.8%,-33%[inhibitor],6,.
Cc1ccc(NC(=O)CSc2nc3cc(C(=O)NCC4CCCO4)ccc3c(=O)n2CC2CCCO2)cc1 (stereo not drawn),.,.,.,-2.4%,-8%,0,.
O=C(CNS(=O)(=O)c1ccccc1)N/N=C/c1ccc(O)cc1,9.5,6%,3%,.,10%[15.4 µM],2,2
O=C(OCC(=O)N1CCOCC1)c1ccccc1Cc1ccccc1,2.3,-4%,1%,1.9%,-33%[inhibitor],.,-17
COc1ccc(Cl)cc1C(=O)Nc1ccc(CN2CCCCC2)cc1,-1.7,8%,14%,.,-16%,-6,7
# (list continues)
SMILES,Menin MLL FP FL,gsp antag,Sfp inh,ClpP mod,gsp ag,CtBP-E1A blk,TRPV1 potentiator
CC(C)c1cccc(-c2ccc3c(c2)S(=O)(=O)c2cccc(C(=O)NCc4ccccc4Cl)c2C3=O)c1,.,7%,.,-3.0%,-3%,-7,.
Clc1ccc(Cl)c2sc(N3CCOCC3)nc12,.,1%,.,-0.7%,-2%,13,.
Cc1[nH]c2ccccc2c1Cc1nnc(SCC(N)=O)o1,4.0,-17%,-7%,0.9%,-10%,5,-24
CCN(Cc1ccncc1)C(=O)c1ccc(Br)o1,.,-13%,4%,-2.1%,-3%,5,-2
CC(C)c1ccc(/C=N/NC(=O)CC(=O)NCc2ccccc2)cc1,1.3,-1%,18%,0.1%,-1%,.,-11
COc1ccc(S(=O)(=O)N2CCc3ccccc32)cc1C(=O)Nc1ccc(NC(C)=O)cc1,.,-18%,.,4.7%,-11%,.,.
